Source: PubChem
HNF4A DNA FP = change in binding of human HNF4A to DNA, primary screen, biochemical, fluorescence polarization, FITC-DNA; Hepatocyte nuclear factor 4-alpha (Homo sapiens), P41235; 1 h; activity change, % at 10 µM; 360,000 tested, 0.3% active; in the data active = activity change above about 30%, passing the limit was not always enough;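 note: controls were the assay level and a saturating level of protein; the project sought stronger binding though the title names inhibitors; some compounds called inactive have numbers as strong as hits; positive values seem to mean higher polarization but the record does not say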
Target sequence (P41235 whole entry, looked up): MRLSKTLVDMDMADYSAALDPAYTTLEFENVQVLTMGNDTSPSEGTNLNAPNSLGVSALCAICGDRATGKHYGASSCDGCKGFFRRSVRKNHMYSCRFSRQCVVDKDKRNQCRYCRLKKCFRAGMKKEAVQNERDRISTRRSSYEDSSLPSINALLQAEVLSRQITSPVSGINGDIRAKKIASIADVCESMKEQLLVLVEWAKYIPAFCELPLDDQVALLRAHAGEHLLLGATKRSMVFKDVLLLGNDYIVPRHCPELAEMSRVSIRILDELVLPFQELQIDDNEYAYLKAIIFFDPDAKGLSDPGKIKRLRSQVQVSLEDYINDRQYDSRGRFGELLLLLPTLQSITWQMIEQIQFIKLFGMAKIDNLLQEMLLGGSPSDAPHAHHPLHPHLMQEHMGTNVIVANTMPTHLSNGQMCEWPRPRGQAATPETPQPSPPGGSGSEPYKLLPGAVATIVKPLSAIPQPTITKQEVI
LANA-H2A inh = blockers of LANA interaction with H2A/H2B – biochemical, FP readout, HTS, primary screen | cell-free LANA-H2A/H2B peptide, fluorescence polarization | inhibition, % (test concentration not listed) | 320,000 tested, 0.6% active | AID 2629, 2010; in the data active = inhibition mostly above about 10%, no sharp cut-off; inactive = mostly below about 6.7%;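 note: stock transfer was 7.5 nL into about 10 µL; 0% = median of vehicle wells and 100% = median of positive control wells; one replicate is shown; the record names a cut of 25% in any replicate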
RanGTP-Imp inh = inhibitors of RanGTP-importin-beta interaction, primary screen, biochemical, FRET, CFP-Ran, YFP-importin-beta, homogeneous; inhibition, % (no concentration beside the values); AID 2216, 2009; cell-free CFP-Ran/YFP-importin-beta FRET ratio; 300,000 tested, 1.1% active;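 active = most replicates above 15%; inconclusive = exactly half above 15%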;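 note: 0% = DMSO wells and 100% = Ran loaded with GDP instead of GTP; wells of about 40 µL received 100 nL stock; the first replicate is given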
ALR inh = inhibitors of human ALR sulfhydryl oxidase, primary screen, biochemical, H2O2 detection, HRP-luminol luminescence, single point | FAD-linked sulfhydryl oxidase ALR (Homo sapiens), P55789 | purified ALR, DTT oxidation | inhibition, % (test concentration not listed) | 290,000 tested, 3.8% active;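 active = mean and each replicate at 75% or more; inconclusive = only one of the two met; inactive = neither met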;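 note: stock transfer was 7.5 nL into about 7.5 µL; 0% = neutral wells and 100% = wells with inactivated enzyme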
Target sequence (P55789 whole entry, looked up): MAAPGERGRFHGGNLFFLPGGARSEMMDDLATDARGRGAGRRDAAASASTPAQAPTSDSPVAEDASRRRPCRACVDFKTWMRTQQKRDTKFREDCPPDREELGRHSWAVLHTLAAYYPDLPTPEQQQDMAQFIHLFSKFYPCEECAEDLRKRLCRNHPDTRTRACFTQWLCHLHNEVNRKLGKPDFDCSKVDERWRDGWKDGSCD
Vif A3G = inhibitors of Vif binding to APOBEC3G peptide, primary screen, biochemical, TR-FRET, GST-Vif 1-94, biotin-A3G peptide, dose response retest (AID 1117319). Virion infectivity factor (Human immunodeficiency virus type 1 group M subtype B (isolate …. TR-FRET GST-Vif / biotin-A3G peptide binding; higher % means a stronger effect; test concentration not given here; strong numbers were not always called active. one-dose inhibition, %; IC50 in µM for titrated hits. 260,000 tested, 0.57% active;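 active = above the screen mean plus three standard deviations and confirmed in dose response; inconclusive = results disagree or hit not tested in dose response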;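 note: Vif residues 1-94 fused to GST binding biotinylated APOBEC3G peptide 110-148; 0% = full assay without inhibitor and 100% = GST in place of GST-Vif; retest series ran down from 100 µM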
Beta2AR agonist = beta2AR agonists driving receptor internalization, primary screen, cell-based, FAP fluorogen, flow cytometry; Beta-2 adrenergic receptor (Homo sapiens), P07550; 340,000 tested, 0.43% active; response, % (no concentration beside the values); AID 504454, 2011; Am2.2-beta2AR cells; reference of the scale not given here;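 active = response above a set limit, near 3 SD of response in nonfluorescent compounds, cut at about 42% in these data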;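 note: stock transfer was 100 nL into about 11 µL; a reference agonist was the positive control; negative values mostly stem from fluorescent compounds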
Target sequence (P07550 whole entry, looked up): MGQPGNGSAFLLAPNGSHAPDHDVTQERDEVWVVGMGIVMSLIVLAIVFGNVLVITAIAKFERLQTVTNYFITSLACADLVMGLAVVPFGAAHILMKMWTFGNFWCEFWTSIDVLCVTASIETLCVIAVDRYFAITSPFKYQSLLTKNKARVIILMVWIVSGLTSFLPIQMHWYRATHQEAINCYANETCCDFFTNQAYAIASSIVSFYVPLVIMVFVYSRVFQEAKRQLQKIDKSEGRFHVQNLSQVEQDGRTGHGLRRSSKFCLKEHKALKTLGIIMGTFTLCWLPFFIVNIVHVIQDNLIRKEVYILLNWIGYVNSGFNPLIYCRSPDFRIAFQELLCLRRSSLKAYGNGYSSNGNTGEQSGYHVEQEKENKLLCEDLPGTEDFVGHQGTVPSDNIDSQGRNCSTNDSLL
Calb FLC = C. albicans growth inhibition with fluconazole, primary screen, CaCi-2 strain, Alamar Blue fluorescence; C. albicans CaCi-2 (fluconazole-resistant clinical isolate) + fluconazole, 48 h; growth inhibition, % (concentration not given with the values); 300,000 tested, 0.57% active; AID 1979, 2009;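 active = most replicates above 75%; inconclusive = exactly half above 75%; inactive = most below 75%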;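 note: all wells also contain fluconazole at 8 µg/ml as a sub-toxic cotreatment; 0% = median of DMSO wells and 100% = median of geldanamycin control wells; wells of about 8 µL received 7.5 nL stock; the first replicate is given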
Numbers without * were called inactive; ? = inconclusive; · = not tested or not shown.

SMILES	HNF4A DNA FP	LANA-H2A inh	RanGTP-Imp inh	ALR inh	Vif A3G	Beta2AR agonist	Calb FLC
C#CCN1C=CC(=O)[C@@H](OC(=O)Nc2ccc(Br)cc2)[C@H]1c1ccccc1Br	-2.0	·	·	·	6%	-5	·
O=[N+]([O-])c1ccc(NN=Cc2ccccc2)nc1	7.8	·	·	·	-4%	-2	·
CCOC(=O)N1CCN(C(=O)C2CCCN(S(=O)(=O)c3c(C)cc(C)cc3C)C2)CC1 (stereo not given)	0.5	5.3	0.2	-6	·	-8	-5
COc1ccc2oc(C(=O)N(C)Cc3ccc4c(c3)OCCO4)c(C)c2c1	1.6	2.2	·	-3	-1%	13	-7
COc1cc(/C=N/NC(=O)COc2cc(C)cc(C)c2)ccc1OS(=O)(=O)c1ccc(C)cc1	-2.9	3.2	-3.3	-3	-1%	4	3
Cc1nn(Cc2ccc(F)cc2)c(C)c1NC(=O)c1cc(-c2ccco2)on1	6.3	13*	2.9	-9	-1%	-3	2
CC(=O)NC1C(OCc2ccccc2)OC(CO)C(OC(C)=O)C1OC(C)=O (stereo not given)	-1.0	4.4	0.0	0	18%	-3	-2
C[N+](C)(C)CCCCCC(=O)/C=N/O	6.8	0.8	3.2	-14	9%	-5	-3
CCOc1cc2c(cc1/C=C1/NC(=O)N(CC(=O)OC)C1=O)OCO2	0.1	5.4	0.1	-9	·	14	22
COc1ccc(C(=O)NCCNc2nc3ccc(C)cc3cc2C#N)cc1	1.7	1.1	65*	-6	·	8	2
Cc1onc(-c2c(F)cccc2Cl)c1C(=O)N(C)CC(=O)Nc1cccc(F)c1	2.6	·	0.8	·	0%	-2	1
NC(=O)C[C@H](NC(=O)c1ccc(Cl)cc1)C(=O)OCc1ccccc1	-2.4	2.3	·	·	·	-2	·
Cn1nnnc1SCCNCc1ccc(Cl)cc1	-1.4	-1.3	0.4	0	-5%	-1	-12
NC(=O)C(Cc1ccccc1)NS(=O)(=O)c1ccc(N2CCCC2=O)cc1 (stereo not given)	-1.6	-1.1	-1.0	-5	1%	-9	5
CCOC(=O)c1c(-c2ccc(F)cc2)cn2ccccc12	-0.2	-0.9	-0.3	1	4%	-8	7
O=[N+]([O-])c1cccc(NC(=S)NCc2ccncc2)c1	-0.2	-0.6	0.5	·	33%	-6	-7
COCCn1c(SCC(=O)c2ccccc2)nc2c(c1=O)SCC2	1.5	1.9	1.3	94*	2%	-10	0
O=C(Cc1cccs1)Nc1nnc(-c2ccc(F)cc2)s1	1.9	4.6	-2.9	-1	-3%	-9	38
CC1Sc2ccc(S(=O)(=O)N3CCC(C(=O)Nc4cccc(Cl)c4)CC3)cc2NC1=O (stereo not given)	8.3	-1.9	1.6	-13	·	6	15
COc1cc(-c2noc(CCCC(=O)Nc3cccnc3)n2)cc(OC)c1OC	0.4	1.8	?	-6	6%	2	0
Cc1ccc(S(=O)(=O)N2CCN(C(=O)COC(=O)c3ccccc3Cl)CC2)c(C)c1	-0.4	1.1	·	-2	9%	5	·
O=C1CC(C(=O)Nc2ccc(Cl)c(Cl)c2)S/C(=N\N=C\c2ccco2)N1 (stereo not given)	2.4	0.5	4.0	-1	11%	16	13
CCOC(=O)Nc1ccc(NC(=O)c2ccccc2F)cc1	-1.6	4.9	-1.2	-2	-1%	2	-7
O=C(Nc1ccc(CN2CCOCC2)cc1)c1ccc(F)cc1	1.6	-1.2	-0.6	-4	·	0	12
CSCCC(NS(=O)(=O)c1ccc2c(c1)OCCO2)C(=O)N(C)Cc1ccccc1F (stereo not given)	0.2	-1.0	·	·	-11%	17	·

Record cards (already shown):
C[N+](C)(C)CCCCCC(=O)/C=N/O in the list: HNF4A DNA FP: 6.8; LANA-H2A inh: 0.8; RanGTP-Imp inh: 3.2; ALR inh: -14; Vif A3G: 9%; Beta2AR agonist: -5; Calb FLC: -3
CC1Sc2ccc(S(=O)(=O)N3CCC(C(=O)Nc4cccc(Cl)c4)CC3)cc2NC1=O (stereo not given) in the list: HNF4A DNA FP: 8.3; LANA-H2A inh: -1.9; RanGTP-Imp inh: 1.6; ALR inh: -13; Vif A3G: ·; Beta2AR agonist: 6; Calb FLC: 15

The main list resumes with the 2 entries that preceded the break.
SMILES	HNF4A DNA FP	LANA-H2A inh	RanGTP-Imp inh	ALR inh	Vif A3G	Beta2AR agonist	Calb FLC
O=C(Nc1ccc(CN2CCOCC2)cc1)c1ccc(F)cc1	1.6	-1.2	-0.6	-4	·	0	12
CSCCC(NS(=O)(=O)c1ccc2c(c1)OCCO2)C(=O)N(C)Cc1ccccc1F (stereo not given)	0.2	-1.0	·	·	-11%	17	·
O=S1(=O)CCN2C=C(Br)C=C(Br)C2=N1	0.9	3.0	2.0	-2	2%	-7	-8
CCCCCn1c(CN2CCN(c3cccc(Cl)c3)CC2)nc2c1c(=O)[nH]c(=O)n2C	-2.7	2.8	?	5	30%	12	-2
CCOc1ccc(S(=O)(=O)NCCC(=O)N2CCN(c3ccccc3O)CC2)cc1	5.2	4.7	-0.3	98*	-1%	6	5
CCOC(=O)C1CCN(C(=O)COC(=O)/C=C/c2cccc(OC)c2OC)CC1	-3.8	-10	·	-5	·	6	·
CCSc1nc2cc(OC)c(OC)cc2c(=O)n1CCc1ccccc1	1.9	2.2	-0.6	-19	7%	-14	4
C/C(=N\NC(=O)c1ccc(CSc2nncn2C)cc1)c1ccc2ccccc2c1	1.3	3.9	-2.0	13	·	-5	-7
Cc1nc(Nc2c(Cl)cccc2Cl)sc1C(=O)Nc1ccccc1	-3.1	-2.1	1.5	-4	·	-5	5
COC(=O)c1ccc(/C=N/N2CCN(Cc3ccccc3Cl)CC2)cc1	-4.8	1.7	-1.8	12	7%	4	-14
Cc1cccc(OCC(=O)Nc2ccncc2)c1	-2.2	3.3	1.4	3	·	1	1
ON=C1c2cc(OCCN3CCCCC3)ccc2-c2ccc(OCCN3CCCCC3)cc21	11	-1.8	2.0	2	-4%	25	27
C=CCn1c(SCc2nc3ccccc3c(=O)[nH]2)nc2sc3c(c2c1=O)CCCC3	·	7.0	10	-6	·	·	-1
COc1ccc(-c2c(-c3ccsc3)oc(=O)c3cc(OC)c(OC)cc23)cc1	0.7	-1.8	·	-1	·	-17	·
COC(=O)C(CC(C)C)NC(=O)c1ccc([N+](=O)[O-])c(C)c1 (stereo not given)	0.3	2.1	-7.9	-1	-1%	8	-10
COc1ccc(-c2nn(-c3ccccc3)cc2C(=O)NC(=S)Nc2cc(Cl)ccc2Cl)cc1	7.0	-4.2	-0.8	-5	20%	-11	-1
Cc1ccc(Cl)cc1N1CCN(C(=O)c2noc(C)c2[N+](=O)[O-])CC1	-2.2	·	-1.2	9	·	1	10
Brc1ccc(OCCN2CCOCC2)cc1	-3.2	-6.1	1.1	-2	·	0	0
CC(C)(C)NC(=O)CSc1nncn1-c1ccccc1	0.0	1.2	4.9	-2	25%	-3	14
CNS(=O)(=O)c1ccc(NC(=O)Nc2ccc3c(c2)OCO3)cc1	-5.2	-2.1	4.7	-12	·	15	2
Cc1ccc(-c2noc(-c3cccs3)n2)cc1	-3.1	-1.9	1.2	-3	-1%	-2	0
CCOC(=O)Cn1c(=O)oc2cc(S(=O)(=O)NCc3ccccn3)ccc21	3.9	-0.2	5.6	-2	-3%	-8	-6
CS(=O)(=O)N1CCN=C1SCc1cccc(F)c1	-0.4	0.3	-1.0	81*	6%	2	7
CCC1CCc2c(sc(NC(=O)c3cnccn3)c2C(N)=O)C1 (stereo not given)	0.0	-0.2	0.0	·	-8%	-1	14
Cc1ccccc1C(=O)Nc1ccc(O)cc1C(=O)O	-4.1	-2.2	6.2	17	1%	-7	-10
CC1CCN(C(=O)CS(=O)(=O)Cc2ccccc2)CC1	2.7	-2.7	-1.4	-6	·	-3	-6
O=C1OCCN1C(=O)[C@H]1[C@H](c2ccc(Cl)cc2)C(c2ccccc2)=NN1c1ccc(Br)cc1	0.9	·	·	·	0%	4	·
SMILES	HNF4A DNA FP	LANA-H2A inh	RanGTP-Imp inh	ALR inh	Vif A3G	Beta2AR agonist	Calb FLC
COc1ccc(NC(=O)c2scc(S(=O)(=O)C(C)C)c2N)cc1	-1.7	0.9	-2.9	-34	-11%	2	1
N#Cc1cccnc1N1CCN(C(=O)COCC(=O)O)CC1	1.3	0.9	-0.2	-6	-5%	2	4
Cc1c(C)c2ccc(OCC(=O)NC3CCN(Cc4ccccc4)CC3)cc2oc1=O	-1.6	4.5	1.4	-3	·	-2	2
Cn1c(=O)n(C)c2cc(S(=O)(=O)Nc3ccccc3C(=O)O)ccc21	3.6	-2.3	-2.0	-8	·	-3	3
O=C(N/N=C/C=C/c1ccccc1)c1cccs1	-1.7	-3.7	4.0	-9	·	2	-6
C[C@H]1C=C(C(=O)O)O[C@@H](OCc2ccc(CO)cc2)C1	-2.1	-0.8	-3.3	5	·	3	-5
O=[N+]([O-])c1cc(C(F)(F)F)cc([N+](=O)[O-])c1NCc1cccnc1	-0.8	5.8	-0.6	·	·	-18	-7
Cc1c(C(C)CCCO)oc(=O)c2c1Oc1c(C)c(C(C)C[C@H](C)O)oc(=O)c1C2 (stereo not given in full)	0.8	0.0	·	-3	·	9	·
COc1cccc(CC(=O)Nc2nc(-c3cccnc3)cs2)c1	6.7	-1.4	-2.4	·	7%	10	-18
COc1ccc(CN(C)C(c2ccccc2)c2nnnn2-c2ccccc2C)c(OC)c1C (stereo not given)	-0.2	-4.1	-2.8	·	2%	2	-6
CCOc1ccccc1N1CCN(Cc2cc3c(cc2[N+](=O)[O-])OCO3)CC1	-2.7	-4.4	-0.3	5	·	4	-11
CCOCCCNS(=O)(=O)c1ccc2c(c1)CCN2C(=O)CC	2.5	-0.5	3.1	-9	18%	-14	10
COc1cccc(-c2cnc(NCc3cc(Cl)ccc3O)n2C)c1	-2.5	4.1	1.6	?	1%	2	-38
Cc1cccc(COCC(Cc2ccccc2)N2CCN(C(=O)c3ccc(Cl)c(Cl)c3)CCC2=O)c1 (stereo not given)	-6.7	2.4	3.2	0	22%	-1	6
O=C(NNC(=O)c1cc(-c2ccncc2)nc2ccccc12)c1ccccc1O	2.1	6.1	4.9	15	11%	3	86*
Cn1nnc2c(NCc3ccco3)nccc21	7.4	-2.2	2.6	0	3%	-15	16
COC(=O)Cc1ccc(NC(=S)NCc2cccc(OC)c2)cc1	-0.6	-0.4	-3.6	-8	-7%	0	-18
Cc1ccc(-c2nc3ccccc3c(=O)n2NC(=O)COc2ccccc2)cc1	-3.0	-1.4	-3.6	-3	-10%	0	-10
CC(=O)Nc1ccc2c(c1)CCCC2	6.8	1.0	-1.3	1	21%	7	11
Cc1ccc(Nc2nc(-c3ccc(S(=O)(=O)N4CCOCC4)cc3)cs2)cc1	2.2	9.7	3.2	-2	0%	-4	10
Cc1ccc(NS(=O)(=O)c2ccc(NS(=O)(=O)c3cccs3)cc2)cc1	0.8	-1.1	3.3	5	-2%	6	7
NS(=O)(=O)c1ccc(NC(=S)NCc2ccc3c(c2)OCO3)cc1	-1.5	-0.9	1.8	-1	1%	-2	39

Printed as active in LANA-H2A inh, of those listed so far:
| compound | LANA-H2A inh | RanGTP-Imp inh | ALR inh | Vif A3G | Beta2AR agonist |
| --- | --- | --- | --- | --- | --- |
| Cc1nn(Cc2ccc(F)cc2)c(C)c1NC(=O)c1cc(-c2ccco2)on1 | 13* | 2.9 | -9 | -1% | -3 |

Compounds were not picked by outcome, and some 6.3% of all compounds hit somewhere here.
